VDR inhibitor = Inhibitors of the vitamin D receptor (VDR): qHTS. VDR-SRC2-3 peptide fluorescence polarization, 2 h. Potency, µM, without a hit: max response, negative = inhibition, most hits filed as inhibitors. actives 0.93% (n = 400,000). AID 504847, 2011; active = well fitted inhibition curve with a large enough effect; inconclusive = small, poorly fitted or top-dose-only effect, or another doubt; inactive = no such curve, though single readings can be large or run the other way; note: series mostly up to about 120 µM
Target sequence (P11473 whole entry, looked up): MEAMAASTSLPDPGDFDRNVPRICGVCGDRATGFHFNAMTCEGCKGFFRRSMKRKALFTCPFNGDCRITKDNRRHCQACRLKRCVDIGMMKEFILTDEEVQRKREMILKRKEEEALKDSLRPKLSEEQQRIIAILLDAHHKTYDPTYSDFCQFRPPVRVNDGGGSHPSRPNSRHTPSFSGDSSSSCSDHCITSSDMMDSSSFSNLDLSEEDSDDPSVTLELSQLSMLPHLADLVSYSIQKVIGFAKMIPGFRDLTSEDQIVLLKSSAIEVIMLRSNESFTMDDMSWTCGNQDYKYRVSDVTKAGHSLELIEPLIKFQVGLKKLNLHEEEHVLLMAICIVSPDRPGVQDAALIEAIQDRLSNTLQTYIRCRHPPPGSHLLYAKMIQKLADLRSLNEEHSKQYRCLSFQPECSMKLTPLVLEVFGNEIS
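Signal is fluorescence polarization, reporting how far test compounds block the interaction of VDR with the SRC2-3 coregulator peptide after a 2 h room-temperature incubation.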
Active calls of the source: *; ? = inconclusive; & = joins results of further samples. % is set by controls: 0 for no effect and ±100 for the full control effect; potency is the fitted concentration of half-maximal effect.

entry	VDR inhibitor	SMILES
1	0%	c1ccc2c(c1)OCCOCCOCCOCCO2
2	0%	CN(C)c1ccc(CNC(=O)CN2CCSc3ccc(S(=O)(=O)N(C)C)cc32)cc1
3	-6%	Cc1sc2nc(CSc3nnnn3-c3ccc(Cl)cc3)[nH]c(=O)c2c1C
4	-22%	O=C(COc1ccccc1C(=O)c1cnn(-c2ccccc2)c1)Nc1ccc2ccccc2c1
5	-10%	Cc1ccc(C2NC(=S)NC3=C2C(=O)CCC3)cc1 (stereo not drawn)
6	-2%	CC(Oc1ccccc1Cl)C(=O)Nc1ccc(S(=O)(=O)Nc2nccs2)cc1 (stereo not drawn)
7	-2%	CCOC(=O)c1c(NC(=O)C(C)OC(=O)C2=COCCO2)sc2c1CCCC2 (stereo not drawn)
8	-19%	COc1ccc(-c2cc(C(=O)NC(Cc3cc4ccccc4[nH]3)C(=O)O)c(C)o2)cc1OC (stereo not drawn)
9	10%	Cc1cccc(C(C)C)c1NC(=O)COC(=O)Cc1ccsc1
10	8%	Cc1ccc(S(=O)(=O)N2CCC(C(=O)NCCc3ccccc3)CC2)cc1
11	-15%	COc1cccc(NS(=O)(=O)c2cc3c(cc2C)N(C)CCO3)c1
12	19%	Cc1ccc(NC(=O)[C@H]2O[C@@H]3OC(C)(C)O[C@@H]3[C@H]3OC(C)(C)O[C@H]32)cc1F

entry	VDR inhibitor	SMILES
13	5%	CCOC(=O)C1=C(C(=O)OCC)c2ccc(OC)c(OC)c2C1
14	-9%	COC(=O)c1ccc(CSc2nnc(SCc3ccc(C(=O)OC)o3)s2)o1
15	16%	CC(=O)Nc1nonc1NC(=O)CSc1ncn[nH]1
16	2%	CC(NC(=O)Cn1cc([N+](=O)[O-])cn1)c1ccc(C(C)(C)C)cc1 (stereo not drawn)
17	6%	COc1ccc(-n2c(=O)c3sc4ccccc4c3n(Cc3ccccc3C)c2=O)cc1OC
18	4%	COc1cc(N2CCCC2)ccc1C=O
19	-13%	COc1ccc(OCC(=O)NNC(=O)Cc2coc3cc(OC)ccc23)cc1
20	-1%	COc1ccc(/C=C/C(=O)O)cc1S(=O)(=O)N1CCCc2ccccc21
21	-12%	Cc1ccc(S(=O)(=O)N2CCN(c3nc(-c4cncn4C)nc4ccccc34)CC2)cc1
22	2%	CCC(=O)Nc1ccc(N2CCN(C(=O)c3ccccc3C)CC2)cc1
23	-8%	COc1ccc(-n2ccc(=O)c3c2CCCC3=O)cc1
24	-16%	CCOc1ccc(C(=O)N[C@H](C(=O)Nc2ccc(OC)c(S(=O)(=O)N3CCOCC3)c2)C(C)C)cc1

entry	VDR inhibitor	SMILES
25	11%	COC(=O)CSc1nc2ccc(NC(C)=O)cc2s1
26	-19%	CCCc1nc(SCc2ccc(OCC)cc2)n[nH]1
27	1%&-4%	COC(=O)c1ccc(NC(=O)CCS(=O)(=O)c2ccc(Br)s2)cc1
28	-27%	Cc1ccc(OCc2cc(C(=O)NC(C)Cc3cnccn3)no2)cc1C (stereo not drawn)
29	-8%	CCN(CC)S(=O)(=O)c1cccc(NC(=O)c2ccc(SC)cc2OC)c1
30	6%	COc1ccc(N(C(=O)c2ccccc2OC(C)=O)C(C)C2CC2)cc1 (stereo not drawn)
31	0%	Cc1ccc([C@@H]2[C@@H]3C(=O)N(C)C(=O)[C@@H]3[C@]3(C)C(=O)N(CCO)CC(=O)N23)o1
32	-20%	O=C(O)CCCC(=O)OCc1c(-c2ccccc2)ncc2ccccc12
33	4%	O=C(CSc1nn(-c2ccccc2)c(=S)s1)Nc1ncccn1
34	13%	O=C(CCN1C(=O)C2C3C=CC(C3)C2C1=O)N1CCCCC1 (stereo not drawn)
35	8%	Cc1cc(C)cc(N2CC(C(=O)Nc3cc(C)on3)CC2=O)c1 (stereo not drawn)
36	-12%	Cc1onc(-c2ccccc2Cl)c1C(=O)Nc1cccc(-c2cn3cccnc3n2)c1

entry	VDR inhibitor	SMILES
37	-3%&19%	CCOC(=O)C1CCCN(C(=O)Cn2ncc3c([nH]c4ccccc43)c2=O)C1 (stereo not drawn)
38	-10%	CC1CCCCC1NC(=O)COC(=O)c1ccc2c(c1)OCCO2 (stereo not drawn)
39	-6%	CN(C)C(=O)c1noc2cc([N+](=O)[O-])ccc12
40	-4%	CC1(C)CC(=O)N(c2cc(Cl)cc(Cl)c2)C(=O)C1
41	?	COc1cc(/C=C/C(=O)c2ccc([N+](=O)[O-])o2)ccc1O
42	-1%	CC(=O)Nc1ccc(S(=O)(=O)N(C)CC(=O)OCC(=O)c2ccc[nH]2)cc1
43	?	CC(CCc1ccccc1)NC(=O)c1ccc2nc(N3CCOCC3)sc2c1 (stereo not drawn)
44	-12%&-6%	COc1ccc(/C=C/c2nnc(NC(=O)CSc3ccc(C)cc3)s2)cc1
45	-12%	CC1CCc2nn(CC(=O)NCc3ccco3)cc2C1 (stereo not drawn)
46	-3%	CCOc1ccccc1NC(=O)COC(=O)c1cc[n+]([O-])cc1
47	-2%	CCc1ccc(C(=O)Nc2cccc(-c3nn[nH]n3)c2)s1
48	-6%	COc1ccc(/C=C2\SC(=S)N(CCC(=O)NC3CCCC3)C2=O)cc1OC

entry	VDR inhibitor	SMILES
49	-2%	C=CCn1c(CNC(=O)c2ccco2)nnc1SCC(=O)c1ccc(F)cc1
50	-10%	COc1ccc(C)cc1NC(=O)N1CCCc2ccccc21
51	?	CC(C)(C)c1ccc(/C=C(\C#N)C(=O)Nc2ccccn2)cc1
52	17%	COC(=O)c1ccccc1NC(=O)CNC(=O)c1ccco1
53	6%	CC(C)(C)OC(=O)N1CCC(c2c(C(=O)NCc3ccc4c(c3)OCO4)cnn2-c2ccccc2Cl)CC1
54	79µM*	CC1=NN(c2ccccc2)C(=O)/C1=C/c1ccc(Cl)cc1
55	-9%	COCCNC(=O)c1cc(-c2ccccc2)n(Cc2cc(C)no2)n1
56	16%&3%	CCN(CC)CCOC(=O)C(c1ccccc1)C1CCCCC1 (stereo not drawn)
57	8%	ClCCn1cnc2c(SCc3ccccc3)ncnc21
58	2%	CCCN(CC(=O)Nc1ccccc1C)C(=O)c1cccc(-n2cnnn2)c1
59	6%	N#C/C(=C/c1ccc(-c2ccc(C(=O)O)c(Cl)c2)o1)C(=O)NCC1CCCO1 (stereo not drawn)
60	2%	CSc1ccc(CCNC(=O)c2cccc3c2C(=O)N(C2CCCCC2)C3)cc1

entry	VDR inhibitor	SMILES
61	-1%	Cc1cc2nc(-c3ccc(SCC(=O)Nc4ccc(S(=O)(=O)N5CCCC5)cc4)nc3)[nH]c2cc1C
62	-2%	COc1ccc(O)c(/C=N/Nc2nc(Nc3ccccc3)nc(-n3nc(C)cc3C)n2)c1
63	-18%	O=C(CNC(=O)c1cccs1)OCC(=O)c1ccc(Br)cc1
64	-2%	O=C(CNC(=O)c1cccc(Cl)c1)Nc1ccc(F)c(F)c1F
65	?	O=C(c1ccncc1)N1CCC2(CCN(Cc3ccncc3)CC2)CC1
66	13%	Cc1ccc(C(=O)N/C(=C/c2ccc(-c3cc(C(F)(F)F)ccc3Cl)o2)C(=O)NCc2cccnc2)cc1
67	5%	C/C(=N\NC(=O)CNC(=O)c1ccc(F)cc1)c1ccco1
68	0%	CCOC(=O)c1c(NC(=S)NC)sc2c1CCCC2
69	-6%	COc1ccc(/C=N\NC(=O)c2ccc(-c3ccccc3)cc2)c(OC)c1OC
70	0%	CCn1cc(C(=O)OCC(=O)Nc2ccc(C)c(Cl)c2)c(=O)c2ccc(C)nc21
71	-8%	CN1C(C)(C)CC(NC(=O)CCC(=O)NC2CC(C)(C)N(C)C(C)(C)C2)CC1(C)C
72	-4%	Cc1ccc(CNc2ccc(-c3nc(C(C)C)no3)cc2[N+](=O)[O-])cc1

entry	VDR inhibitor	SMILES
73	16%&11%	Cc1ccc(N2CCN(C(=O)c3nn(C)c4c3CS(=O)(=O)c3ccccc3-4)CC2C)cc1 (stereo not drawn)
74	4%	COc1ccccc1-n1c(SCC(=O)Nc2ccccc2F)nc2[nH]ncc2c1=O
75	13%	CCn1nnc2cc(C(=O)Nc3cc(C)ccc3C)ccc21
76	-1%	O/N=C1\CCCc2c1nc(-c1ccccc1F)n2O
77	10%	COc1ccc(Cl)cc1S(=O)(=O)N(C)CC(=O)NCc1ccc2c(c1)OCO2
78	14%	Cc1ccc(S(=O)(=O)N2CCOCC2)cc1NC(=O)c1cc2ccccc2oc1=O
79	-11%	Cc1ccc(S(=O)(=O)Nc2cc(S(=O)(=O)N3CCCCC3)ccc2N2CCOCC2)cc1
80	-17%	CSCC(C)N1CCC(n2nccc2NC(=O)CCc2ccccc2)CC1 (stereo not drawn)
81	4%	Cc1cc(C)cc(NC(=O)c2cccc(NC(=O)C3C4CC5OC(=O)C3C5C4)c2)c1 (stereo not drawn)
82	0%	COCCNC(=O)c1ccc(CSCc2cccc(Cl)c2)o1
83	-3%	CCC(C)NC(=O)CN1C(=O)CC(C)(C)S(=O)(=O)c2ccccc21 (stereo not drawn)
84	-2%	Cc1cnc(CN(C)Cc2nc(Cc3cccc(C(F)(F)F)c3)no2)[nH]1

entry	VDR inhibitor	SMILES
85	-9%	CCc1cccc(NC(=O)C2CCN(S(=O)(=O)c3ccc4c(c3)CC(C)N4C(C)=O)CC2)c1 (stereo not drawn)
86	3%	Cc1ccc(-c2noc(-c3ccccc3NC(=O)c3ccccc3)n2)cc1
87	-12%	Oc1ccc(-c2csc(-c3c[nH]c4ccccc34)n2)c(O)c1
88	-5%	COc1ccc(CCC(=O)Nc2nccs2)cc1OC
89	-16%	Cc1ccc(Cl)cc1NC(=O)Cn1c(C)csc1=O
90	4%	COC(=O)N/N=C(\C)c1ccc(Br)cc1
91	-20%	COc1ccc([C@H]2CC(=O)C=C(c3cccc(Cl)c3)C2)cc1
92	15%	CCOc1ccc(CCNC(=O)C2CCN(S(=O)(=O)N3CCOCC3)CC2)cc1OCC
93	-20%	O=C(COc1ccc(F)cc1)N(c1ccccn1)C1CCCCC1
94	0%	COc1ccc(C2(c3ccc(OC)cc3)NC(=O)N(Cn3nnc4ccccc4c3=O)C2=O)cc1
95	5%	CC(C)(C)OC(=O)N1CCC[C@H]1C(=O)N/N=C/c1cccc2nccnc12
96	-19%	Cc1ccc(-n2c(N)c(C(=O)NCc3cccnc3)sc2=S)cc1

entry	VDR inhibitor	SMILES
97	?	N#C/C(=C\c1ccccc1)C(=O)Nc1cc(S(=O)(=O)N2CCOCC2)ccc1N1CCCC1
98	-10%	CCOC(=O)C1CCC(CNCc2ccccc2C)CC1 (stereo not drawn)
99	2%	COc1ccc(Cc2nnc(Nc3ccccc3OC)[nH]c2=O)cc1
100	-10%	O=C(CSc1n[nH]c(=O)n1C1CC1)NCc1ccccc1Cl
101	2%	O=C(O)c1ccc(NS(=O)(=O)c2ccc3c(c2)OCCCO3)cc1
102	-1%	COc1cc(/C=N/NC(=O)CCn2nc(C)cc2C)ccc1O
103	4%	Cc1ccc(Nc2nc3ccc(C)cc3nc2-n2nc(C)cc2C)c(C)c1
104	9%	COc1cc(NC(=O)c2ccc(N3CC4CC(C3)c3cccc(=O)n3C4)c(NC(=O)c3ccncc3)c2)cc(OC)c1OC (stereo not drawn)

Already shown: an excerpt of the list.
entry	VDR inhibitor	SMILES
74	4%	COc1ccccc1-n1c(SCC(=O)Nc2ccccc2F)nc2[nH]ncc2c1=O
75	13%	CCn1nnc2cc(C(=O)Nc3cc(C)ccc3C)ccc21
76	-1%	O/N=C1\CCCc2c1nc(-c1ccccc1F)n2O
77	10%	COc1ccc(Cl)cc1S(=O)(=O)N(C)CC(=O)NCc1ccc2c(c1)OCO2
78	14%	Cc1ccc(S(=O)(=O)N2CCOCC2)cc1NC(=O)c1cc2ccccc2oc1=O
79	-11%	Cc1ccc(S(=O)(=O)Nc2cc(S(=O)(=O)N3CCCCC3)ccc2N2CCOCC2)cc1
80	-17%	CSCC(C)N1CCC(n2nccc2NC(=O)CCc2ccccc2)CC1 (stereo not drawn)
81	4%	Cc1cc(C)cc(NC(=O)c2cccc(NC(=O)C3C4CC5OC(=O)C3C5C4)c2)c1 (stereo not drawn)
82	0%	COCCNC(=O)c1ccc(CSCc2cccc(Cl)c2)o1
83	-3%	CCC(C)NC(=O)CN1C(=O)CC(C)(C)S(=O)(=O)c2ccccc21 (stereo not drawn)
84	-2%	Cc1cnc(CN(C)Cc2nc(Cc3cccc(C(F)(F)F)c3)no2)[nH]1
85	-9%	CCc1cccc(NC(=O)C2CCN(S(=O)(=O)c3ccc4c(c3)CC(C)N4C(C)=O)CC2)c1 (stereo not drawn)
86	3%	Cc1ccc(-c2noc(-c3ccccc3NC(=O)c3ccccc3)n2)cc1
87	-12%	Oc1ccc(-c2csc(-c3c[nH]c4ccccc34)n2)c(O)c1
88	-5%	COc1ccc(CCC(=O)Nc2nccs2)cc1OC
89	-16%	Cc1ccc(Cl)cc1NC(=O)Cn1c(C)csc1=O
90	4%	COC(=O)N/N=C(\C)c1ccc(Br)cc1
91	-20%	COc1ccc([C@H]2CC(=O)C=C(c3cccc(Cl)c3)C2)cc1
92	15%	CCOc1ccc(CCNC(=O)C2CCN(S(=O)(=O)N3CCOCC3)CC2)cc1OCC
93	-20%	O=C(COc1ccc(F)cc1)N(c1ccccn1)C1CCCCC1
94	0%	COc1ccc(C2(c3ccc(OC)cc3)NC(=O)N(Cn3nnc4ccccc4c3=O)C2=O)cc1
95	5%	CC(C)(C)OC(=O)N1CCC[C@H]1C(=O)N/N=C/c1cccc2nccnc12
96	-19%	Cc1ccc(-n2c(N)c(C(=O)NCc3cccnc3)sc2=S)cc1
97	?	N#C/C(=C\c1ccccc1)C(=O)Nc1cc(S(=O)(=O)N2CCOCC2)ccc1N1CCCC1
98	-10%	CCOC(=O)C1CCC(CNCc2ccccc2C)CC1 (stereo not drawn)
99	2%	COc1ccc(Cc2nnc(Nc3ccccc3OC)[nH]c2=O)cc1
100	-10%	O=C(CSc1n[nH]c(=O)n1C1CC1)NCc1ccccc1Cl
101	2%	O=C(O)c1ccc(NS(=O)(=O)c2ccc3c(c2)OCCCO3)cc1
102	-1%	COc1cc(/C=N/NC(=O)CCn2nc(C)cc2C)ccc1O

Bioassay records from PubChem BioAssay.

A portion of the library; count on the stated rates, not on these rows.
